# Mtb betalactam: beta-lactam sensitization of Mtb H37Rv, H37Rv; 330,000 tested, 0.27% active; M. tuberculosis H37Rv growth with meropenem, percent inhibition; hits of this screen are not shown here; AID 434955, 2010; inhibition, % at 25 µM;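 active = about 74% or more and at least 40 points above the plate without the antibiotic, then above 30% in a dose series; inconclusive = first-round hits that could not be retested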;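 also: growth measured after seven days incubation then overnight dye step; 0% = bacteria only wells and 100% = bacteria with antibiotic; twin plates without the antibiotic show which effects depend on it; some results filed as inactive read as strong as hits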
# * hit, by the source's call; u = inconclusive.
SMILES,Mtb betalactam
COc1ccc(-c2csc(NC(=O)CSC(C)C(=O)Nc3cc(C)on3)n2)cc1OC (stereo not given),2
COc1ccc(C(=O)NCc2ccccc2C)cc1S(=O)(=O)NC1CCCC1,3
CCOc1ccc(NC(C)=O)cc1N,-4
COc1cccc(-c2nn(-c3ccc(C)cc3)cc2C(=O)N(C)CC(=O)Nc2cccc(F)c2)c1,6
Cc1ccccc1CCNC(=O)c1ccc(Cl)c(S(=O)(=O)N2CC(C)OC(C)C2)c1 (stereo not given),-7
COc1ccc(F)cc1CN1CCN(CC(=O)Nc2ccccc2C(=O)NC2CC2)CC1,3
CCC(C)Sc1cccc(-c2nc3cnccn3c2NC2CCCCC2)c1 (stereo not given),53
C[C@H](NS(=O)(=O)c1ccccc1F)C(=O)OCC(=O)Nc1ccc2c(c1)OCCO2,-8
COc1ccc2c(c1)C(=O)N1[C@H]3c4cc(C)ccc4OC[C@@H]3[C@H](c3ccccc3)[C@]1(C)C(=O)N2,91
O=C(Cn1cc(C(F)(F)F)ccc1=O)NCC1CCCO1 (stereo not given),0
CC(=O)NC(c1cc(Cl)c2cccnc2c1O)C(C)C (stereo not given),70
Cc1sc2ncn(CC(=O)NC3CCCCC3)c(=O)c2c1C,-5
NC(=O)C1CCN(C(=O)c2cc(-c3ccc(Cl)s3)nc3ccccc23)CC1,2
CN(C(=O)CSc1nc2ccccc2o1)C1CCS(=O)(=O)C1 (stereo not given),-4
COc1cc2[nH]c(=O)n(CCCCCC(=O)NC3CCCC3)c(=O)c2cc1OC,-1
CCN(C[C@H]1N[C@@](Cc2ccccc2)(C(=O)OC)[C@H]2C(=O)N(Cc3ccccc3)C(=O)[C@@H]12)C(=O)Nc1ccc(C(F)(F)F)cc1,100
O=C(COC(=O)c1cc[n+]([O-])cc1)Nc1ccc(Cl)cc1C(F)(F)F,1
O=C(NCc1ccccc1)c1ccc(Cl)c(S(=O)(=O)N2CCCC2)c1,-4
CC(C)c1ccc(C2(C)NC(=O)N(CC(=O)N3CCN(C(=O)c4cccs4)CC3)C2=O)cc1 (stereo not given),-5
C[C@@H](OC(=O)N(C)Cc1ccccc1)[C@H]1O[C@]2(C)CCCC[C@H]1O2,1
OC[C@H]1O[C@@H](n2cnc3cc(Cl)c(Cl)cc32)[C@H](O)[C@@H]1O,1
COc1cccc(C(=O)NC2C(=O)N3C(C(=O)O)=C(COC(C)=O)CSC23)c1 (stereo not given),-8
CC(C)(C)OC(=O)NCC(=O)NNC(=O)C(C(=O)OCc1ccccc1)c1ccccc1 (stereo not given),5
Nc1cc(=O)[nH]c(SCC(=O)NC2CCCCCCC2)n1,0
COc1ccc(NC(=O)COC(=O)CCC(=O)c2cccs2)cc1OC,-11
CCOC(=O)[C@@H]1[C@H]2COc3cc(OC)ccc3[C@@H]2N2C(=O)N(c3cccc(C)c3)C(=O)[C@]12C,-4
Cc1ccc(C)c(OCC(=O)NNC(=O)c2ccc(=O)[nH]c2)c1,-7
O=C(CNS(=O)(=O)c1ccc(Cl)cc1)NC1CCCCC1,-2
O=C(COC(=O)C1CC2C=CC1C2)Nc1ccc([N+](=O)[O-])cc1 (stereo not given),-2
COc1ccc(NC(=O)c2ccc(S(=O)(=O)N3CC(C)CC(C)C3)cc2)cc1S(N)(=O)=O (stereo not given),-2
CCOCCc1nnc(NC(=O)CCS(=O)(=O)c2ccccc2)s1,30
CCOc1ccccc1NC(=O)CCNC(=O)c1ccco1,1
COc1ccccc1/C=C/C(=O)OCC(=O)NCc1ccc2c(c1)OCO2,0
Cc1cc(C(=O)OCC(=O)NC(C)c2ccc(F)cc2)c(C)o1 (stereo not given),-5
COC(=O)c1ccc(CNC(=O)c2ccc(S(=O)(=O)N(C)c3ccccc3OC)cc2)cc1,62
Cc1ccc2c(c1)c1c3n2CCN(CC(O)CNC(C)C)C3CCC1 (stereo not given),-3
C#CCOCCOCCOCCNc1nc(N2CCN(C(=O)CCCCCCCCCCNC(=O)[C@H](CCCCN)n3cc(C)nn3)CC2)nc(N2CCN(C(=O)CCCCCCCCCCNC(=O)[C@H](CO)n3cc(CCCSC)nn3)CC2)n1,89
COc1ccc(CC(=O)OCC(=O)NCc2ccc(C)cc2)cc1OC,2
CCCn1nc(C(=O)NCC2COc3ccccc3O2)c2ccccc2c1=O (stereo not given),-3
COc1ccc(/C=C(/NC(=O)c2ccc(Br)cc2)C(=O)N2CCOCC2)cc1,u
CN(C)S(=O)(=O)c1ccc(Cl)c(NC(=O)CNC2(C)CCS(=O)(=O)C2)c1 (stereo not given),-11
CN(C(=O)COC(=O)Cc1c[nH]c2ccccc12)c1c(N)n(Cc2ccccc2)c(=O)[nH]c1=O,-4
O=C(C[C@@H]1C/C=C\C[C@H](Cc2ccc(F)cc2)C(=O)OC[C@H]2CCCN2C1=O)NCCO,-2
CCCC(C)CO (stereo not given),-2
CC(=O)c1ccccc1NC(=O)COC(=O)CN1C(=O)C2CCCCC2C1=O (stereo not given),7

# A different layout for some results above:
O=C(C[C@@H]1C/C=C\C[C@H](Cc2ccc(F)cc2)C(=O)OC[C@H]2CCCN2C1=O)NCCO
  Mtb betalactam: -2

COc1ccc(C(=O)NCc2ccccc2C)cc1S(=O)(=O)NC1CCCC1
  Mtb betalactam: 3

# Next results follow:
SMILES,Mtb betalactam
Cc1ccc(S(=O)(=O)N2[C@@H](c3ccc(Cl)cc3)C(C(=O)O)=CC[C@H]2c2ccc(C(C)C)cc2)cc1,1
CC(=O)NC(c1cc(F)c2cccnc2c1O)C1CC1 (stereo not given),-7
COc1ccccc1/C=C/C(=O)N1CCN(S(=O)(=O)c2cc(C)ccc2C)CC1,0
CCN(CC)C(=O)OCc1c(-c2cccc(OC)c2)ncc2ccccc12,-1
CC(C)=CCC/C(C)=C/CNC(=O)CC1C[C@H](C(=O)N(C(C)C)C(C)C)[C@@]2(C)c3[nH]c4ccccc4c3CCN2C1=O (stereo not given in full),2
CC(C)c1ccccc1NC(=S)NC(=O)C1CCCCC1,-9
CC(=O)N1CCN(c2ccc(NCc3ccc(Br)o3)cc2)CC1,-4
O=C(Nc1nccs1)C1=COCCO1,-3
CC(C)NC(=O)N(C)C[C@H]1Oc2ccc(NC(=O)Nc3ccc(C(F)(F)F)cc3)cc2C(=O)N([C@H](C)CO)C[C@@H]1C,-6
CNCC[C@H](Oc1ccc(C(F)(F)F)cc1)c1ccccc1,5
Cn1c(N)c(C(=O)COC(=O)c2ccccc2C(=O)c2ccccc2)c(=O)n(C)c1=O,-2
CC(Sc1ncnc2c1cnn2-c1ccccc1)C(=O)Nc1ccc(N2CCOCC2)cc1 (stereo not given),2
Cc1ccc(NC(=O)NC(=O)COc2c(F)c(F)cc(F)c2F)c(C)c1,-3
COc1ccc(CCC(=O)OCC(=O)N2CCN(S(=O)(=O)c3ccc(C)cc3C)CC2)cc1,0
CCC1CCC2(CC1)NC(=O)N(CC(=O)NCc1ccc(Cl)cc1)C2=O (stereo not given),-8
COc1cc(OC)cc(-c2c(C#Cc3ccsc3)c3cc(-c4ccc5c(c4)OCCO5)ccc3n2C)c1,6
O=C(NCc1ccccc1CN1CCOCC1)c1ccc(-n2cccn2)cc1,0
C[C@H]1CN([C@@H](C)CO)C(=O)c2cccc(NC(=O)C3CC3)c2O[C@H]1CN(C)S(=O)(=O)c1cccs1,-7
CC(=O)C(Cc1ccccc1)NC(=O)COc1ccc2c(c1)OCO2 (stereo not given),0
Cn1c(SCC(=O)Nc2ccc(C(=O)O)cc2)nc2scc(-c3ccccc3Cl)c2c1=O,-2
CC(C(=O)Nc1ccc2[nH]c(=O)[nH]c2c1)N1CCN(Cc2ccc3c(c2)OCO3)CC1 (stereo not given),-6
CC(NC(=O)COC(=O)c1cccnc1Cl)C12CC3CC(CC(C3)C1)C2 (stereo not given),4
CC1CC1C(=O)N1CCN(S(=O)(=O)c2cc(C(F)(F)F)cc(C(F)(F)F)c2)CC1 (stereo not given),-2
CCOC(=O)/C=C1\SCC(=O)N1CC(=O)Nc1cc(S(=O)(=O)N(C)C)ccc1C,-1
O=C(NN1CCOCC1)c1ccccc1NS(=O)(=O)c1ccc(F)cc1F,-6
Nc1nonc1C(=O)NCCNC(=O)c1ccc(Cl)c(Cl)c1,-2
CC(C)c1ccc(S(=O)(=O)N2CCN(C(=O)n3ccnc3)CC2)cc1,1
O=C(NC1CCN(C(=O)Nc2ccccc2Cl)CC1)c1cccc(F)c1,-8
C=CC[C@@H](Cc1ccc(F)cc1)C(=O)OC[C@@H]1CCCN1C(=O)[C@@H](CC=C)CC(=O)N[C@@H](CO)Cc1ccccc1,1
c1ccc(C[C@H]2CN=C(Nc3ccccc3)N2CC2CCCCC2)cc1,-2
CCC(Oc1ccc(C)cc1)C(=O)Nc1ccc(S(=O)(=O)Nc2nccs2)cc1 (stereo not given),-1
COc1ccccc1Oc1ccnc2cc(Cl)ccc12,6
COc1ccc(C(=O)N/C(=C\c2cccc3ccccc23)C(=O)N2CCN(C)CC2)cc1,3
CCN(C[C@H]1N[C@@](C)(C(=O)OC)[C@H]2C(=O)N(C)C(=O)[C@@H]12)S(=O)(=O)c1ccc(-c2ccccc2)cc1,-2
Cc1ccccc1NC(=O)COC(=O)c1cc(S(=O)(=O)N2CCOCC2)ccc1C,0
C[C@H](CO)N1C[C@H](C)[C@@H](CN(C)S(=O)(=O)c2cccs2)Oc2ccc(NS(=O)(=O)c3ccccc3)cc2C1=O,-5
C=C(C)CNc1cc(S(=O)(=O)N2CCOCC2)ccc1Oc1ccccc1,44
Cc1cc(C(=O)CN2C(=O)C(=O)N(CC(C)C)C2=O)c(C)n1C1CC1,1
CC(C)(C)NS(=O)(=O)NC(=O)C1=C(N2CCCC2)COC1=O,-1
Cc1ccc(C(=O)OCC(=O)NCCN2C(=O)CSC2=O)cc1[N+](=O)[O-],0
COc1ccc(NC(=O)CN(C)C(=O)c2cc(-c3ccco3)nc3ccccc23)cc1,-6
O=C(Cc1cccs1)N1CCN(S(=O)(=O)c2ccc(Cl)c(C(F)(F)F)c2)CC1,3
Cc1cc(NC(=O)CCN2CCCCC2)ccc1Br,-5
COC(=O)C1=C(c2ccc(OC(F)(F)F)cc2)C[C@@H]2CC[C@H]1N2C(=O)NCc1cc(C)oc1C(F)(F)F,2
O=C(CCNS(=O)(=O)c1ccccc1)NCCSc1ccc(Br)cc1,-7

# As a short view, some entries already given:
SMILES,Mtb betalactam
C[C@H](NS(=O)(=O)c1ccccc1F)C(=O)OCC(=O)Nc1ccc2c(c1)OCCO2,-8
COc1ccc2c(c1)C(=O)N1[C@H]3c4cc(C)ccc4OC[C@@H]3[C@H](c3ccccc3)[C@]1(C)C(=O)N2,91
O=C(Cn1cc(C(F)(F)F)ccc1=O)NCC1CCCO1 (stereo not given),0
CC(=O)NC(c1cc(Cl)c2cccnc2c1O)C(C)C (stereo not given),70
Cc1sc2ncn(CC(=O)NC3CCCCC3)c(=O)c2c1C,-5
NC(=O)C1CCN(C(=O)c2cc(-c3ccc(Cl)s3)nc3ccccc23)CC1,2
CN(C(=O)CSc1nc2ccccc2o1)C1CCS(=O)(=O)C1 (stereo not given),-4
COc1cc2[nH]c(=O)n(CCCCCC(=O)NC3CCCC3)c(=O)c2cc1OC,-1
CCN(C[C@H]1N[C@@](Cc2ccccc2)(C(=O)OC)[C@H]2C(=O)N(Cc3ccccc3)C(=O)[C@@H]12)C(=O)Nc1ccc(C(F)(F)F)cc1,100
O=C(COC(=O)c1cc[n+]([O-])cc1)Nc1ccc(Cl)cc1C(F)(F)F,1
O=C(NCc1ccccc1)c1ccc(Cl)c(S(=O)(=O)N2CCCC2)c1,-4
CC(C)c1ccc(C2(C)NC(=O)N(CC(=O)N3CCN(C(=O)c4cccs4)CC3)C2=O)cc1 (stereo not given),-5
C[C@@H](OC(=O)N(C)Cc1ccccc1)[C@H]1O[C@]2(C)CCCC[C@H]1O2,1
OC[C@H]1O[C@@H](n2cnc3cc(Cl)c(Cl)cc32)[C@H](O)[C@@H]1O,1
COc1cccc(C(=O)NC2C(=O)N3C(C(=O)O)=C(COC(C)=O)CSC23)c1 (stereo not given),-8

# Continued.
SMILES,Mtb betalactam
CCN(CC(=O)NCc1ccc(F)cc1)C(=O)c1ccc2c(c1)OCO2,-1
CC(C)c1cccc(-c2ccc3c(c2)S(=O)(=O)c2cccc(C(=O)NCc4ccco4)c2C3=O)c1,1
NS(=O)(=O)c1ccc(CCNC(=O)COC(=O)CCN2C(=O)C3CC=CCC3C2=O)cc1 (stereo not given),-4
CCN(CC)c1ccc(C(=O)NNC(=O)CN2C(=O)NC(C)(c3ccccc3)C2=O)cc1 (stereo not given),-8
CCOc1ccccc1C(=O)OC(C)C(=O)Nc1ccc(S(=O)(=O)N2CCCC2)cc1 (stereo not given),2
C#CCOCCOCCOCCNc1nc(N2CCN(C(=O)[C@H](CCCN=C(N)N)n3cc(C(N)[C@@H](C)CC)nn3)CC2)nc(N2CCN(C(=O)[C@H](CCCCN)n3cc([C@@H](N)[C@H](C)CC)nn3)CC2)n1 (stereo not given in full),12
O=C(COC(=O)c1ccncc1)Nc1ccc2c(c1)OCO2,-1
Cc1ccc(Cl)cc1NC(=O)CN1C(=O)NC2(CCCCCC2)C1=O,-4
COc1cc(/C=C2\SC(=O)N(CCNC(=O)c3c(C)noc3C)C2=O)cc(OC)c1OC,2
COc1ccccc1-c1nn(-c2ccccc2)cc1C(=O)N1CCc2ccccc2C1,-9
O=[N+]([O-])c1ccc(Cl)cc1,3
Cc1ccc(C)c(-n2ccnc2SCC(=O)Nc2cccc(S(=O)(=O)NC3=NCCC3)c2)c1,-5
C=C[C@@H]1c2ccccc2N(S(=O)(=O)c2ccc(C)cc2)[C@H](c2ccccc2)C1(C#N)C#N,-7
COc1ccc(NC(=O)CCOc2cc(C)ccc2C)cc1S(=O)(=O)N1CCCCC1,-5
N#Cc1ccccc1S(=O)(=O)N1CCN(C(=O)CCC2CCCC2)CC1,-6
O=C(c1cn(Cc2ccccc2)nc1-c1cccnc1)N1CCN(Cc2c(F)cccc2Cl)CC1,-5
CCN1CCN(C(=O)COc2ccc(S(=O)(=O)N3CCOCC3)cc2Cl)CC1,-20

# Bioassay records as filed in PubChem BioAssay.

# Not all compounds are listed; count on the stated rates, not on these rows.
